Screening results as filed in PubChem BioAssay.
Vaccinia inh – blocks a specific stage of Vaccinia orthopoxvirus infection; Vaccinia-infected cells, mCherry/Venus stage reporter fluorescence; stronger effect = lower value; some inactives read as strong as hits; 89,000 compounds, 0.01% hits; AID 1053133; activity change (mCherry), % (concentration not given with the values);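 active = mCherry past -33% and 40 or more points under the early reporter, replicates agreeing; inconclusive = past -33% without that gap or agreement; tested in A549 cells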;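 note: scaled between vehicle wells and reference inhibitor wells; 23 nL library stock went into each well; one replicate is shown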
Vaccinia inh Venus – further read-out of Vaccinia inh, marked with its call; activity change (Venus), %; measured here: Venus reporter, other viral stage;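 negative = less Venus signal; first of two replicates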
An asterisk follows results filed as active; & = joins results of further samples. This is a subset (hit frequency here may not be typical).

CCC(=O)N1[C@@H](CO)[C@@H](c2ccccc2)C12CN(C(=O)c1cnccn1)C2 was read as Vaccinia inh 23 and Vaccinia inh Venus 16.
Screening COc1ccccc1S(=O)(=O)N(C)C[C@H]1Oc2cc(C#CCC3CCCC3)ccc2S(=O)(=O)N([C@@H](C)CO)C[C@@H]1C returned Vaccinia inh -21 and Vaccinia inh Venus -23.
`COCC(=O)N1[C@@H](C#N)[C@@H](c2ccccc2-c2ccccc2F)[C@@H]1CO` gave Vaccinia inh 17 and Vaccinia inh Venus 7.
CO[C@@H]1CN(C)C(=O)c2cc(NC(=O)Nc3ccccc3Cl)ccc2OC[C@@H](C)N(Cc2ccccc2C(=O)O)C[C@H]1C was read as Vaccinia inh 17 and Vaccinia inh Venus 8.
C[C@H](O)C#Cc1cnc2c(c1)C(=O)N([C@H](C)CO)C[C@@H](C)[C@@H](CN(C)Cc1cccc(F)c1)O2 was read as Vaccinia inh 6 and Vaccinia inh Venus -6.
Screening O=C(C[C@H]1C=C[C@H](NC(=O)c2cnccn2)[C@@H](CO)O1)NCc1ccccc1F returned Vaccinia inh -7 and Vaccinia inh Venus 5.
For CO[C@H]1CN(C)C(=O)c2ccc(NC(=O)C3CC3)cc2OC[C@@H](C)N(Cc2ccncc2)C[C@@H]1C the results were Vaccinia inh 7 and Vaccinia inh Venus 12.
Screening C[C@H]1CN([C@@H](C)CO)C(=O)Cc2cc(NC(=O)Cc3cn(C)c4ccccc34)ccc2O[C@H]1CN(C)C(=O)Nc1ccc(F)cc1 returned Vaccinia inh 11 and Vaccinia inh Venus 4.
Cc1ccc(S(=O)(=O)Nc2ccc3c(c2)C(=O)N([C@H](C)CO)C[C@@H](C)[C@H](CN(C)C(=O)Nc2ccc(F)cc2)O3)cc1 was read as Vaccinia inh 13 and Vaccinia inh Venus 8.
`COCC(=O)Nc1ccc2c(c1)C(=O)N(C)[C@@H]1CC[C@@H](CC(=O)NCC(F)(F)F)O[C@@H]1CO2` gave Vaccinia inh 10 and Vaccinia inh Venus 10.
Screening COc1cccc(-c2cnc3c(c2)C(=O)N([C@@H](C)CO)C[C@H](C)[C@H](CN(C)Cc2cccnc2)O3)c1 returned Vaccinia inh 6 and Vaccinia inh Venus 1.
For C[C@H](CO)N1C[C@H](C)[C@@H](CN(C)C(=O)Nc2ccc3c(c2)OCO3)Oc2ccc(NC(=O)CCC(F)(F)F)cc2C1=O the results were Vaccinia inh 12 and Vaccinia inh Venus 10.
Screening C[C@@H]1CN([C@@H](C)CO)C(=O)CCCn2nncc2CO[C@@H]1CN(C)C(=O)Cc1ccccc1 returned Vaccinia inh 13&3 and Vaccinia inh Venus 2&1.
CN1C(=O)c2cc(NC(=O)c3ccc(F)cc3)ccc2OC[C@H]2O[C@@H](CC(=O)NCC3CC3)CC[C@H]21 was read as Vaccinia inh -7 and Vaccinia inh Venus -8.
For Cc1ccc(S(=O)(=O)Nc2cccc3c2O[C@@H](CN(C)C(=O)NC(C)C)[C@H](C)CN([C@H](C)CO)C3=O)cc1 the results were Vaccinia inh 19 and Vaccinia inh Venus 10.

Not a retest: 3 of the compounds above.
Screening COc1ccccc1S(=O)(=O)N(C)C[C@H]1Oc2cc(C#CCC3CCCC3)ccc2S(=O)(=O)N([C@@H](C)CO)C[C@@H]1C returned Vaccinia inh -21 and Vaccinia inh Venus -23.
`COCC(=O)N1[C@@H](C#N)[C@@H](c2ccccc2-c2ccccc2F)[C@@H]1CO` gave Vaccinia inh 17 and Vaccinia inh Venus 7.
CO[C@@H]1CN(C)C(=O)c2cc(NC(=O)Nc3ccccc3Cl)ccc2OC[C@@H](C)N(Cc2ccccc2C(=O)O)C[C@H]1C was read as Vaccinia inh 17 and Vaccinia inh Venus 8.

Going on with the list.
`O=C(C[C@@H]1CC[C@@H]2[C@H](COC[C@H](O)CN2C(=O)c2ccncc2)O1)NC1Cc2ccccc2C1` gave Vaccinia inh 10 and Vaccinia inh Venus 13.
For C[C@H]1CN([C@@H](C)CO)C(=O)c2cc(C#CC3CCCCC3)cnc2O[C@H]1CN(C)C(=O)NC1CCCC1 the results were Vaccinia inh inconclusive.
Screening C[C@H](NC(=O)C[C@H]1CC[C@H](NS(=O)(=O)c2cccc(F)c2)[C@@H](CO)O1)c1ccccc1 returned Vaccinia inh 6 and Vaccinia inh Venus 5.
For C[C@@H]1CN([C@@H](C)CO)C(=O)c2cccc(NS(C)(=O)=O)c2O[C@H]1CN(C)S(=O)(=O)c1cn(C)cn1 the results were Vaccinia inh -1 and Vaccinia inh Venus -9.
Screening O=C(C[C@@H]1CC[C@H]2[C@@H](COC[C@H](O)CN2S(=O)(=O)c2ccccc2)O1)NCc1ccc(-c2ccccc2)cc1 returned Vaccinia inh -34 and Vaccinia inh Venus -28.
Screening CC(C)CC#Cc1ccc2c(c1)O[C@H](CN(C)Cc1cccc(F)c1)[C@H](C)CN([C@@H](C)CO)S2(=O)=O returned Vaccinia inh inconclusive.
For CCCC(=O)Nc1ccc2c(c1)C(=O)N(C)[C@@H]1CC[C@H](CC(=O)NCc3ccccc3)O[C@H]1CO2 the results were Vaccinia inh 11 and Vaccinia inh Venus 6.
`CN(C)CC(=O)Nc1ccc2c(c1)[C@H]1C[C@H](CC(=O)NCc3ccc(-c4ccccc4)cc3)O[C@H](CO)[C@H]1O2` gave Vaccinia inh inconclusive.
Screening CN(C)CC(=O)N1[C@@H]2Cn3c(ccc(-c4cccnc4)c3=O)[C@H]1[C@@H](C(=O)NC1CCCC1)[C@@H]2CO returned Vaccinia inh 11 and Vaccinia inh Venus 8.
For C[C@H](CO)N1C[C@H](C)[C@H](CN(C)C(=O)Nc2cccc3ccccc23)Oc2ccc(NC(=O)Nc3cccc4ccccc34)cc2C1=O the results were Vaccinia inh 12 and Vaccinia inh Venus 21.
For COc1ccc(CN(C)C[C@@H]2OCCCC[C@@H](C)Oc3ccc(NC(=O)Nc4c(C)noc4C)cc3C(=O)N([C@H](C)CO)C[C@@H]2C)cc1 the results were Vaccinia inh 34 and Vaccinia inh Venus 20.
Screening OC[C@@H]1[C@H](c2ccc(Br)cc2)[C@H]2CN(Cc3ccccn3)CCCCN12 returned Vaccinia inh 13 and Vaccinia inh Venus 8.
For CO[C@H]1CN(C)C(=O)c2ccc(NC(=O)CC(F)(F)F)cc2OC[C@@H](C)N(C(C)=O)C[C@@H]1C the results were Vaccinia inh inconclusive.
For COc1ccc(NC(=O)N(C)C[C@@H]2Oc3ccc(NC(=O)CCCN(C)C)cc3C(=O)N([C@@H](C)CO)C[C@H]2C)cc1 the results were Vaccinia inh 3 and Vaccinia inh Venus -2.
For Cc1ccc(S(=O)(=O)N(C)C[C@H]2OCCCC[C@H](C)Oc3ccc(NC(=O)Nc4c(C)noc4C)cc3C(=O)N([C@@H](C)CO)C[C@H]2C)cc1 the results were Vaccinia inh 21 and Vaccinia inh Venus 6.
Screening C[C@H](CO)N1C[C@H](C)[C@H](CN(C)C(=O)Nc2ccc3c(c2)OCO3)Oc2c(NS(=O)(=O)c3cn(C)cn3)cccc2C1=O returned Vaccinia inh 13 and Vaccinia inh Venus 10.
CCCC#Cc1ccc([C@H]2[C@H](CO)N3CCCCN(C(=O)c4ccc5c(c4)OCO5)C[C@@H]23)cc1 was read as Vaccinia inh -20 and Vaccinia inh Venus -15.
O=C(c1ccncc1)N1CC[C@@H]2[C@@H](CO)Nc3ccc(C4=CCCCC4)cc3[C@@H]21 was read as Vaccinia inh 16 and Vaccinia inh Venus 2.
COC(=O)C[C@@H]1C[C@@H]2c3cc(N)ccc3O[C@@H]2[C@@H](CO)O1 was read as Vaccinia inh 4 and Vaccinia inh Venus 5.
O=S(=O)(N[C@@H]1CC[C@H](CCn2cc(-c3ccccc3F)nn2)O[C@H]1CO)c1ccc(F)cc1 was read as Vaccinia inh -18 and Vaccinia inh Venus -11.
For COCC(=O)N(C)C[C@@H]1Oc2ncc(C#Cc3ccc(OC)cc3)cc2C(=O)N([C@H](C)CO)C[C@H]1C the results were Vaccinia inh 22 and Vaccinia inh Venus 14.
COc1ccc(-c2cn(CC[C@@H]3CC[C@@H](NC(=O)Nc4ccc(F)cc4)[C@H](CO)O3)nn2)cc1 was read as Vaccinia inh 16 and Vaccinia inh Venus 9.
For C[C@@H]1CN([C@@H](C)CO)C(=O)Cc2cc(NC(=O)Nc3ccc4c(c3)OCO4)ccc2O[C@@H]1CN(C)Cc1ccc(C(=O)Nc2ccccc2N)cc1 the results were Vaccinia inh 2 and Vaccinia inh Venus -1.
`COCC(=O)Nc1ccc2c(c1)C(=O)N(C)C[C@@H](OC)[C@@H](C)CN(C(=O)c1ccccc1F)[C@H](C)CO2` gave Vaccinia inh 13 and Vaccinia inh Venus -1.
Screening COc1ccc(C#Cc2ccc3c(c2)[C@]2(C(=O)N3)[C@H](c3ccc(O)cc3)N3[C@H](c4ccccc4)[C@H](c4ccccc4)OC(=O)[C@H]3[C@@H]2C(=O)O)cc1 returned Vaccinia inh 3 and Vaccinia inh Venus 9.
`Cc1ccccc1S(=O)(=O)N1CC[C@@H]2[C@H](CO)Nc3ccc(-c4ccccc4F)cc3[C@@H]21` gave Vaccinia inh -34 and Vaccinia inh Venus -28.
Screening COc1cccc(-c2cnc3c(c2)C(=O)N([C@@H](C)CO)C[C@@H](C)[C@@H](CN(C)C(=O)CN(C)C)O3)c1 returned Vaccinia inh 8 and Vaccinia inh Venus 10.
For Cc1noc(C)c1NC(=O)NCC[C@@H]1CC[C@H](NC(=O)c2ccncc2)[C@@H](CO)O1 the results were Vaccinia inh -11 and Vaccinia inh Venus 0.
For C[C@@H]1CCCCO[C@H](CN(C)C(=O)c2ccccc2)[C@H](C)CN([C@H](C)CO)C(=O)c2cc(NC(=O)c3ccncc3)ccc2O1 the results were Vaccinia inh 15 and Vaccinia inh Venus 6.
`C[C@@H]1CN([C@@H](C)CO)C(=O)c2cc(NS(=O)(=O)c3ccc(F)cc3)ccc2O[C@H]1CN(C)C(=O)Nc1ccc(C(F)(F)F)cc1` gave Vaccinia inh 14 and Vaccinia inh Venus 11.
`CO[C@H]1CN(C)C(=O)c2ccc(NC(=O)Nc3ccccc3)cc2OC[C@@H](C)N(C(=O)Nc2c(C)noc2C)C[C@@H]1C` gave Vaccinia inh -7 and Vaccinia inh Venus -9.
For C[C@H](CO)N1C[C@H](C)[C@@H](CN(C)Cc2cccc3c2OCCCO3)OCc2ccccc2-c2ccccc2C1=O the results were Vaccinia inh -4 and Vaccinia inh Venus -12.
For C[C@H](CO)N1C[C@H](C)[C@H](CN(C)Cc2ccc(Cl)c(Cl)c2)Oc2ccc(NC(=O)NC3CCCCC3)cc2C1=O the results were Vaccinia inh inconclusive.
Screening COc1ccc(S(=O)(=O)N2CCCCN3[C@H](CO)[C@@H](c4ccc(C#CC5CC5)cc4)[C@H]3C2)cc1 returned Vaccinia inh inconclusive.
Screening C[C@H](CO)N1C[C@H](C)[C@H](CN(C)C(=O)Nc2ccc3c(c2)OCO3)Oc2ncc(C#CC3(O)CCCC3)cc2C1=O returned Vaccinia inh -7 and Vaccinia inh Venus -9.
`CCCC(=O)Nc1ccc2c(c1)C(=O)N(C)C[C@@H](OC)[C@H](C)CN(C(=O)c1ccncc1)[C@@H](C)CO2` gave Vaccinia inh 27 and Vaccinia inh Venus 14.
For O=C(Nc1ccccc1F)N1CC(=O)N2[C@H](C1)[C@H](c1ccc(C#Cc3ccccc3)cc1)[C@@H]2CO the results were Vaccinia inh inconclusive.
`O=C(NCc1ccccc1F)[C@H]1N[C@H]2c3ccc(-c4ccccc4F)c(=O)n3C[C@H]2[C@@H]1CO` gave Vaccinia inh -15 and Vaccinia inh Venus 7.
For O=C(Nc1ccccc1F)N[C@H]1C=C[C@H](CC(=O)N2CCCCC2)O[C@H]1CO the results were Vaccinia inh -13 and Vaccinia inh Venus -2.
Screening COc1ccc(NC(=O)Nc2ccc3c(c2)CC(=O)N([C@H](C)CO)C[C@@H](C)[C@@H](CN(C)Cc2ccc(Oc4ccccc4)cc2)O3)cc1 returned Vaccinia inh -34 and Vaccinia inh Venus -27.
CCC(=O)Nc1ccc2c(c1)C(=O)N(C)[C@H]1CC[C@H](CC(=O)NCCCN(C)C)O[C@H]1CO2 was read as Vaccinia inh 21 and Vaccinia inh Venus 17.
`COCC(=O)N1CC(=O)N2[C@H](CO)[C@H](c3ccc(C#Cc4cccc(OC)c4)cc3)[C@H]2C1` gave Vaccinia inh -14 and Vaccinia inh Venus -22.
C[C@H](CO)N1C[C@H](C)[C@H](CN(C)CC2CCOCC2)Oc2cc(C#CC3CC3)ccc2S1(=O)=O was read as Vaccinia inh 0 and Vaccinia inh Venus -7.
`C[C@@H]1CCCCO[C@@H](CN(C)S(C)(=O)=O)[C@@H](C)CN([C@@H](C)CO)C(=O)c2cc(NC(=O)CCC(F)(F)F)ccc2O1` gave Vaccinia inh 5 and Vaccinia inh Venus -5.
Screening C[C@@H]1CCCCO[C@@H](CN(C)Cc2ccc(C(=O)O)cc2)[C@H](C)CN([C@@H](C)CO)C(=O)c2cc(NC(=O)CCC(F)(F)F)ccc2O1 returned Vaccinia inh 10 and Vaccinia inh Venus 7.
`CC(C)NC(=O)Nc1ccc2c(c1)C(=O)N([C@H](C)CO)C[C@H](C)[C@H](CN(C)S(C)(=O)=O)OCCCC[C@H](C)O2` gave Vaccinia inh 18 and Vaccinia inh Venus 12.

Sorted by molecular weight (ascending): part of the list above
For O=C(Nc1ccccc1F)N1CC(=O)N2[C@H](C1)[C@H](c1ccc(C#Cc3ccccc3)cc1)[C@@H]2CO the results were Vaccinia inh inconclusive.
For CO[C@H]1CN(C)C(=O)c2ccc(NC(=O)C3CC3)cc2OC[C@@H](C)N(Cc2ccncc2)C[C@@H]1C the results were Vaccinia inh 7 and Vaccinia inh Venus 12.
For C[C@@H]1CCCCO[C@H](CN(C)C(=O)c2ccccc2)[C@H](C)CN([C@H](C)CO)C(=O)c2cc(NC(=O)c3ccncc3)ccc2O1 the results were Vaccinia inh 15 and Vaccinia inh Venus 6.
